H5N1 CPE – MDCK cell protection from H5N1 avian flu | cytopathic effect, luminescence, 72 h; active compounds read high; no value below 0 was filed and about half of the inactive calls have no number; reference of the scale not given here | inhibition, % at 50 µM | actives 0.07% (n = 96,000) | AID 740; in the data active = inhibition above about 25%
An asterisk follows results filed as active; i = inactive.

SMILES | H5N1 CPE
CN(C)S(=O)(=O)c1ccc(C(=O)Nc2nnc(-c3ccc4c(c3)CCCC4)o2)cc1 | 0.2
COc1ccccc1NC(=O)c1sc2ncn(Cc3ccccc3C)c(=O)c2c1C | i
COc1cc(-c2nc(S(=O)(=O)c3ccccc3)c(N3CCOCC3)o2)cc(OC)c1OC | 0.5
CC(C)n1c(NCc2c[nH]c3ccccc23)nc2ccccc21 | i
COc1cc(S(=O)(=O)N2CCN(c3ccccc3F)CC2)ccc1Cl | 2.5
CCSc1nc(N)nc(-c2cccs2)c1C#N | 3.2
O=C(O)CCC(=O)N1N=C(c2cccs2)CC1c1cn(-c2ccccc2)nc1-c1ccccc1 (configuration not stated) | i
Cc1nn(CC(=O)NCc2cccnc2)c(=O)c2ccccc12 | 0.3
COc1cccc(/C(O)=C2/C(=O)C(=O)N(CCN3CCOCC3)C2c2cccs2)c1 (configuration not stated) | 0.0
CC1(C)N=C(c2ccc(Cl)cc2)C(=O)N1 | i
COC(=O)c1ccccc1NC(=O)c1cccs1 | 0.1
O=C(CN1CCN(c2ccccn2)CC1)Nc1ccc(Oc2ccccc2)cc1 | 1.3
COc1ccccc1CNc1cc(C)ccc1C | 2.1
COc1ccc(C2C(C#N)=C(N)OC3=C2C(=O)CCC3)cc1Cn1nc(C)c([N+](=O)[O-])c1C (configuration not stated) | 0.1
CCOC(=O)c1c(C)n(Cc2ccco2)c2ccc(O)cc12 | i
Cc1cc(NC(=O)Cc2c(F)cccc2Cl)no1 | 1.1
CC1S/C(=C(\C#N)C(=O)NCc2ccco2)N(c2ccc(F)cc2)C1=O (configuration not stated) | i
CCn1c(=O)cc(OCC(=O)O)c2ccccc21 | 1.4
Cn1nc(C(=O)Nc2cccc(C(F)(F)F)c2)c2ccccc2c1=O | i
O=C(O)CSc1nnc(C2COc3ccccc3O2)n1-c1ccccc1 (configuration not stated) | 0.1
NC(=O)C(c1ccccc1)C1CCCCC1 (configuration not stated) | 0.3
COc1ccc(Cc2nnc(NC(=O)c3c(-c4ccccc4)noc3C)s2)cc1OC | i
COc1ccc(C(=O)n2cnnc2N)cc1 | i
CC(C)(C)C(=O)COC(=O)CNC(=O)c1ccc(Oc2ccccc2)cc1 | 1.6
CSC(=NNC(=O)c1ccccc1O)SC | 1.3
CSc1cccc(NC(=O)CN(C)S(=O)(=O)c2ccccc2)c1 | i
COc1ccccc1N(CC(=O)NCCSC(C)(C)C)S(C)(=O)=O | 0.1
COc1ccc(NC(=O)C2CC(=O)OC2(C)C)cc1 (configuration not stated) | i
O=C(CN1C(=O)C2C3C=CC(C3)C2C1=O)NCc1ccccc1 (configuration not stated) | i
CN(Cc1n[nH]c(=S)n1C)S(=O)(=O)c1ccccc1 | 0.3
CC(=O)NCCc1ccc(S(=O)(=O)N(C)C2CCS(=O)(=O)C2)cc1 (configuration not stated) | i
O=C(COC(=O)C1CCCO1)Nc1cccc(C(F)(F)F)c1 (configuration not stated) | i
CC(C)C1O/C(=N/C(=O)Nc2ccc(Cl)c(Cl)c2)NC1=O (configuration not stated) | 0.7
CC(C)(C)NC(=O)CN(C(=O)C1(C)CC(=O)N=C2C=CC=CN21)C1CCCC1 (configuration not stated) | i
CC(CC(=O)O)CC(=O)Nc1ccc(S(N)(=O)=O)cc1 (configuration not stated) | i
CCN1CCN(C(=O)CSCc2nc(-c3ccc(OC)c(OC)c3)oc2C)CC1 | i
CCN1CCN(c2nc(C)nc3c2sc(=S)n3C)CC1 | 0.8
CCOc1ccc(N(CC(=O)NCc2ccc(F)cc2)S(=O)(=O)c2c(C)noc2C)cc1 | i
Cc1ccc(S(=O)(=O)NCCC(=O)NC2CCCC2)cc1 | 0.3
COc1ccc2occ(NC(C)=O)c2c1 | 1.9
Cc1c(C#N)c(SCC(N)=O)nc2c1CCCC2 | i
CCOC(=O)C(NC(C)=O)(OCc1ccc(F)cc1)C(F)(F)F (configuration not stated) | 1.4
CCOCCn1c(CN2CCN(c3ccc(F)cc3)CC2)nc2c1c(=O)n(C)c(=O)n2C | 1.3
CCCc1cc(=O)n2[nH]c(-c3ccc(C)cc3)cc2n1 | 0.8
O=C(c1ccccc1)N(Cc1ccc(F)cc1)C1CCS(=O)(=O)C1 (configuration not stated) | 0.5
CCN(CC(=O)NCc1ccc(F)cc1)Cc1nc2ccccc2c(=O)[nH]1 | 0.1
Cc1nc2c(-c3ccc(F)cc3)c(C)nn2c(C)c1CCC(=O)N1CCC2(CC1)OCCO2 | 1.3
CCCC(=O)N(c1ccc(OCC)cc1)C1C=CS(=O)(=O)C1 (configuration not stated) | i
CCc1ccccc1-n1c(SCC(=O)Nc2ccc3c(c2)OCCO3)nc2[nH]ncc2c1=O | i
COCCNC(=O)C1CCN(S(=O)(=O)N2CCC3(CC2)OCCO3)CC1 | i
CNS(=O)(=O)c1cc(C(=O)NCc2ccco2)ccc1Cl | 3.8
OCCn1c(SCCOc2ccccc2F)nc2ccccc21 | 1.0
CC1CCN(S(=O)(=O)c2ccc(Cl)cc2)CC1 | 1.6
COc1cccc(-c2nnc3n2N=C(c2cc(OC)ccc2OC)CS3)c1 | 4.8
CC(=O)Nc1cc(C(=O)N2CCC3(CC2)OCCO3)ccc1Sc1ccc(C)cc1 | i
COc1ccc(NC(=O)CSc2nnc(Cc3cccn3C)n2-c2ccc(OC)cc2)cc1 | 1.9
CC(C)Cn1cc(C(=O)NC2CCN(Cc3ccccc3)CC2)c2c3ccccc3n(C)c2c1=O | i
C=CCNC(=O)c1onc(CSc2ccc(Cl)cc2)c1C(=O)O | i
CCN(CC)S(=O)(=O)c1ccc(NC2=NS(=O)(=O)c3ccccc32)cc1 | 0.1
CCOC(=O)c1oc2ccc(S(=O)(=O)N3CCC(C)CC3)cc2c1C | i
Next section:
SMILES | H5N1 CPE
O=S1(=O)CCC(SCc2nc3sccn3c2Br)C1 (configuration not stated) | 1.2
c1csc(C2C3=C(Nc4ncnn42)c2ccccc2OC3)c1 (configuration not stated) | 0.9
O=C(Nc1cccc([N+](=O)[O-])c1)C12CC3CC(C1)CC(n1cnc([N+](=O)[O-])n1)(C3)C2 | i
OC(c1ccc(OCc2ccccc2)cc1)c1nnc(-c2ccccc2)o1 (configuration not stated) | 0.3
N#Cc1c(N2CCN(C(=O)c3ccccc3Cl)CC2)nc(-c2ccccc2)c2c1CCCC2 | 2.6
COC(=O)c1ccc2c(=O)n(NC(C)=O)c(=S)[nH]c2c1 | 1.3
Cc1cc(C)nc(SCc2nc(N)nc(-c3ccccc3O)n2)n1 | 2.2
Cc1cc(S(=O)(=O)NCc2ccc(S(N)(=O)=O)cc2)c(C)s1 | i
O=S(=O)(Nc1nc2ccccc2nc1N1CCN(c2ccccn2)CC1)c1ccc(Cl)cc1 | 0.7
COc1ccc(NC(=O)CSc2nnc(C(C)C)n2N)cc1 | i
CCOC(=O)c1c(NC(=O)CN2CCOCC2)sc(C(=O)NC)c1C | 2.2
O=C(CSc1ncc(-c2ccccc2)[nH]1)Nc1ccccc1 | i
CCOc1ccc(NC(=O)N[C@@H](CCSC)C(=O)OC)cc1 | i
CCCN1C2CCCC1CC(NC(=O)c1ccccc1F)C2 (configuration not stated) | 0.8
CC(C)OCCCNC(=O)Cn1ncc2c(=O)oc3ccccc3c21 | i
Clc1ccc(CSc2cc3c(nn2)-c2ccccc2CC3)cc1 | 0.1
O=S(=O)(c1cccc2nsnc12)N1CCc2ccccc21 | 0.1
CC(C)(C)c1nc(CN2CCCCC2)cc(CN2CCCCC2)c1O | i
CC1CCN(C(c2ccc(N(C)C)cc2)c2nnnn2Cc2ccc(F)cc2)CC1 (configuration not stated) | i
COC(=O)c1ccc(C(=O)OC)c(NC2=NS(=O)(=O)c3ccccc32)c1 | 1.3
CCN(CC)C(=O)c1ccc(S(=O)(=O)NCc2cccnc2)cc1 | 0.5
CCCC(=O)NC(=S)Nc1ccccc1OC | 5.8
O=c1ccc(NS(=O)(=O)c2ccccc2)cn1Cc1ccc(Cl)c(Cl)c1 | i
COc1ccc(N2CC(O)=C(c3n(C)c4ccccc4[n+]3C)C2=N)cc1 | i
FC(F)(F)c1cc(-c2ccccc2)nc(NC2CCCC2)n1 | 0.8
Brc1ccc(-c2nnc3sc(CN4CCC5(CC4)OCCO5)cn23)cc1 | 3.3
O=C(CN1C(=O)COc2ccccc21)N(Cc1ccccc1)Cc1ccccn1 | i
CCCCCc1nc2ccccc2c(=O)n1-c1ccc(Cl)cc1[N+](=O)[O-] | i
O=C(c1sc2ccccc2c1Cl)N(Cc1cccs1)C1CCS(=O)(=O)C1 (configuration not stated) | 3.3
COC(=O)c1[nH]c2cc(OC)ccc2c1NC(=O)CCN1CCN(c2cccc(C)c2C)CC1 | i
COc1ccccc1N1CCN(C2CCN(S(=O)(=O)c3ccc4ccccc4c3)CC2)CC1 | i
COc1ccc(-c2cn3c(C)c(C(=O)NC(C)C)sc3n2)cc1 | 1.6
Cc1ccc(CNCC2CCCO2)o1 (configuration not stated) | i
CCn1c(SCC(=O)N2CCOCC2)nc2oc3c(Cl)cc(Cl)cc3c(=O)c2c1=O | 3.2
CCCC(c1nnnn1Cc1ccc(OC)cc1)N1CCC(C(N)=O)CC1 (configuration not stated) | 0.4
NCCOc1ccccc1-c1ccccc1 | 0.2
OC1CN=C2CCCc3c2n(c2ccc(Cl)cc32)C1 (configuration not stated) | i
Cc1snc(SCC(=O)N/N=C(\N)COc2cccc(C(F)(F)F)c2)c1C#N | i
Cc1c2cnn(CC(=O)N3CCC4(CC3)OCCO4)c(=O)c2c(C)n1Cc1ccccc1 | 1.5
COc1ccc2ccccc2c1/C=N\n1c(C)cc(C)c(C(N)=O)c1=O | 0.5
Cc1cc(C)nc(NC(=O)C(C)C)n1 | 0.1
COCCCn1cc(C(=O)c2cc(OC)ccc2OCC(=O)Nc2cc(C)on2)cc(C#N)c1=O | 0.8
Nc1c(C(=O)NCc2ccco2)c2nc3ccccc3nc2n1CCc1ccc(F)cc1 | i
Cc1ccc(OC(=O)Cn2c(C(F)(F)F)nc3ccccc32)cc1 | 0.6
CCOC(=O)C1CCN(c2c([N+](=O)[O-])c(C(Cl)Cl)nn2-c2ccccc2)CC1 | 0.8
Cc1nc2nc(C)c(CCC(=O)NCc3ccc4c(c3)OCO4)c(C)n2n1 | i
FC(F)(F)c1cccc(-c2cc3ccccc3nc2N2CCCC2)c1 | i
O=C(COc1ncnc2ccccc12)N1CCOCC1 | i
O=C1CCC(C(=O)NC2(C(=O)NC3CCCCC3)CCCCC2)N1 (configuration not stated) | i
CCN(CC)S(=O)(=O)N1CCC(C(=O)NCc2ccc(C)cc2)CC1 | 0.5
COc1ccc(C2CC(=O)c3cnc(Nc4cc(C)cc(C)c4)nc3C2)cc1 (configuration not stated) | i
Cc1ccc2cc(CCNC(=O)C3CCCC3)c(=O)[nH]c2c1 | i
Cc1ccc(NC(=O)C2CCCN(S(=O)(=O)c3c(C)noc3C)C2)c(C)c1 (configuration not stated) | i
COc1ccc(C2CC(=O)C(C=NCCN3CCNCC3)=C(O)C2)cc1OC (configuration not stated) | i
CCCP(=O)(CC(=O)N(CC)CC)c1ccccc1 (configuration not stated) | 0.5
Cc1ccc(-c2csc(NC(=O)Cn3cnc4c3c(=O)n(C)c(=O)n4C)n2)cc1C | i
O=S(=O)(Cc1ccccc1Cl)N1CCCCC1 | 0.7
COc1cccc(NC(=O)c2cc(C(=O)Nc3cccc(OC)c3)n(C)n2)c1 | i
O=C(NCCC1=CCCCC1)C1CCCN(c2nc3ccccc3o2)C1 (configuration not stated) | 1.4
Cc1nn(-c2ccccc2)c2sc(C(=O)N(Cc3ccco3)C(C)C(=O)NC(C)(C)C)cc12 (configuration not stated) | i
The results go on.
SMILES | H5N1 CPE
COc1ccc(OCCNc2cc(N3CCCCC3)ccc2[N+](=O)[O-])cc1 | 1.5
O=C1CC(c2ccc(Cl)cc2)CC(O)=C1C=NCCN1CCNCC1 (configuration not stated) | 0.6
Cc1nn(Cc2ccc([N+](=O)[O-])cc2)c(=O)n1N(C)c1ncc(C(F)(F)F)cc1Cl | 3.5
COC(=O)c1c(C)nc2ccccc2c1-c1ccccc1 | i
CCN(CC)C(=S)Sc1c(-c2ccccc2)c2cc(Cl)ccc2[nH]c1=O | 1.2

Among those listed so far, 20 have fluorine:
SMILES | H5N1 CPE
COc1cc(S(=O)(=O)N2CCN(c3ccccc3F)CC2)ccc1Cl | 2.5
Cc1cc(NC(=O)Cc2c(F)cccc2Cl)no1 | 1.1
CC1S/C(=C(\C#N)C(=O)NCc2ccco2)N(c2ccc(F)cc2)C1=O (configuration not stated) | i
Cn1nc(C(=O)Nc2cccc(C(F)(F)F)c2)c2ccccc2c1=O | i
O=C(COC(=O)C1CCCO1)Nc1cccc(C(F)(F)F)c1 (configuration not stated) | i
CCOc1ccc(N(CC(=O)NCc2ccc(F)cc2)S(=O)(=O)c2c(C)noc2C)cc1 | i
CCOC(=O)C(NC(C)=O)(OCc1ccc(F)cc1)C(F)(F)F (configuration not stated) | 1.4
CCOCCn1c(CN2CCN(c3ccc(F)cc3)CC2)nc2c1c(=O)n(C)c(=O)n2C | 1.3
O=C(c1ccccc1)N(Cc1ccc(F)cc1)C1CCS(=O)(=O)C1 (configuration not stated) | 0.5
CCN(CC(=O)NCc1ccc(F)cc1)Cc1nc2ccccc2c(=O)[nH]1 | 0.1
Cc1nc2c(-c3ccc(F)cc3)c(C)nn2c(C)c1CCC(=O)N1CCC2(CC1)OCCO2 | 1.3
OCCn1c(SCCOc2ccccc2F)nc2ccccc21 | 1.0
CCCN1C2CCCC1CC(NC(=O)c1ccccc1F)C2 (configuration not stated) | 0.8
CC1CCN(C(c2ccc(N(C)C)cc2)c2nnnn2Cc2ccc(F)cc2)CC1 (configuration not stated) | i
FC(F)(F)c1cc(-c2ccccc2)nc(NC2CCCC2)n1 | 0.8
Cc1snc(SCC(=O)N/N=C(\N)COc2cccc(C(F)(F)F)c2)c1C#N | i
Nc1c(C(=O)NCc2ccco2)c2nc3ccccc3nc2n1CCc1ccc(F)cc1 | i
Cc1ccc(OC(=O)Cn2c(C(F)(F)F)nc3ccccc32)cc1 | 0.6
FC(F)(F)c1cccc(-c2cc3ccccc3nc2N2CCCC2)c1 | i
Cc1nn(Cc2ccc([N+](=O)[O-])cc2)c(=O)n1N(C)c1ncc(C(F)(F)F)cc1Cl | 3.5

Only part of the results is shown (hit frequency here may not be typical).
